# Assay outcomes as filed in PubChem.
# PABP FP inh – PABP-poly(A) binding inhibition. inhibition, % at 35 µM. P11940. actives 1% (n = 290,000). PABP-poly(A) RNA binding, fluorescence polarization. AID 2014;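 active = 50% or more with normal probe brightness, or confirmed in later tests; inconclusive = above 50% with abnormal brightness, or retests that disagree; inactive = below 50% or failed in later tests; about a fifth of its hits are not listed in these tables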;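 also: calls also rest on retests at 20 µM and on dose response follow-up; controls were probe without protein and protein plus probe with vehicle; some compounds called inactive have numbers as strong as hits; many hits fall short of the cut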
# CSC inhib – cancer stem cell inhibition | cancer stem cell-like cells viability, luminescence | inhibition, % at 7.5 µM | actives 1.1% (n = 300,000) | AID 2717;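 active = mean at 75% or more and at least half the replicates too; inconclusive = mean and replicates disagree; tested in HMLE shEcad cells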;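 also: 0% = median of negative and 100% = median of positive control wells; the first replicate is given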
# UUG fidelity – alters start codon recognition fidelity in yeast | AID 602363 | S. cerevisiae UUG-firefly luciferase reporter, luminescence/redox ratio | activity score, % at 18.7 µM | actives 0.13% (n = 350,000);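 active = replicate mean at a twofold rise or more, about +100% in these data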;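 also: firefly luciferase made from a UUG start codon reports start codon fidelity; reporter light over untreated wells divided by growth signal over untreated wells; some hits fall short of that in this replicate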
# eIF4H FP inh – inhibitors of RNA binding by human eIF4H; Q15056; eIF4H fluorescence polarization binding assay; actives 0.94% (n = 290,000); inhibition, % at 35 µM; AID 2012;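 active = 50% or more with normal probe brightness, or confirmed in later tests; inconclusive = above 50% with abnormal brightness, or retests that disagree; inactive = below 50% or failed in later tests; about a fifth of its hits are not listed in these tables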;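 also: calls also rest on retests at 20 µM and on dose response follow-up; 0% = protein and probe with vehicle and 100% = probe without protein; strong numbers were not always called active; many hits fall short of the cut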
# MT1-MMP act inh – MT1-MMP (human) activation inhibition | HT1080 RFP-PRO-GFP cells, GFP/RFP ratio fluorescence, overnight; percent of plate control window, DMSO zero | AID 651647 | P50281 | GFP/RFP ratio change, % at 20 µM | actives 0.061% (n = 360,000);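 active = GFP/RFP ratio change of at least 30% with cell ATP level not reduced by more than half and red fluorescence within 50% of control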; also: strong numbers were not always called active
#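 Assay system – RFP-PRO-GFP reporter HT1080 cells · Compound dosing – single dose of 20 µM compound, 1% DMSO final · Incubation – overnight compound exposure at 37 °C · Measure – GFP/RFP fluorescence ratio · Benchmarks – DMSO wells and RFP-L50D-GFP cells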
# Rce1 inhib – blocks yeast Ras-converting enzyme; Q03530; yeast membranes, quenched prenylated peptide cleavage fluorescence; calls only; actives 0.27% (n = 290,000); AID 2563;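 active = fall in fluorescence gain of 50% or more versus controls, with final raw signal at or below 3038400; inconclusive = same 50% fall but final raw signal above 3038400; inactive = fall in fluorescence gain under 50%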;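 also: plate controls were neutral control wells for no effect and wells lacking membranes for full effect; tested at 10 µM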
# Target sequence (Q03530 whole entry, looked up): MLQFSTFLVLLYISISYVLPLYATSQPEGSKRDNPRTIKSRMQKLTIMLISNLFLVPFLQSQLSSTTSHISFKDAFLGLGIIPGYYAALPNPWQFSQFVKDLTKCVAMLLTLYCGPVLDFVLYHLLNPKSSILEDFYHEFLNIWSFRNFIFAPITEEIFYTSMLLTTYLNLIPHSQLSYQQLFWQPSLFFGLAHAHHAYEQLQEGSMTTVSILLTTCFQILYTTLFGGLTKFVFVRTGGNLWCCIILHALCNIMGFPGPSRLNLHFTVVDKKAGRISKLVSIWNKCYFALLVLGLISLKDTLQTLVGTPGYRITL
# Env fusion inh – HIV envelope-mediated fusion inhibition; HeLa-JRFL Env/CEM21 cell fusion, luciferase; inhibition, % at 12.3 µM; actives 1.1% (n = 360,000); AID 651610;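 active = mean replicate inhibition score of at least 50 and every replicate individually at or above 50; inconclusive = only one of the two criteria met; inactive = mean below 50 and not all replicates reaching 50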;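 also: 0% = plate neutral controls and 100% = maraviroc near 300 nM; one replicate is shown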
# eIF4H FP inh retest – recorded beside eIF4H FP inh, whose call it bears; inhibition, %; compound at 20 µM; confirmation average;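 mean of two retest wells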
# PABP FP inh retest – also measured in PABP FP inh; calls as there; inhibition, %; compound at 20 µM; confirmation repeats;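 mean of two retest wells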
# MT1-MMP act inh RFP – further read-out of MT1-MMP act inh, marked with its call; RFP signal change, %; measured here: RFP expression control read;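 0 = vehicle wells; hits needed this value within 50% of zero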
# * marks the source's active call; other numbers are inactive results; i = inactive; ? = inconclusive; nt = no result given.
SMILES,PABP FP inh,CSC inhib,UUG fidelity,eIF4H FP inh,MT1-MMP act inh,MT1-MMP act inh RFP,Rce1 inhib,Env fusion inh,others
C[C@H]1O[C@@H](O[C@H]2CC[C@@]3(C)C(CC[C@]4(C)C3C=CC3=C5CC(C)(C)CC[C@]5(CO)[C@H](O)C[C@]34C)[C@]2(C)CO)[C@H](O)[C@@H](O[C@@H]2O[C@H](CO)[C@@H](O)[C@H](O)[C@H]2O)[C@H]1O (stereo not given in full),nt,-21,21,nt,4,2,nt,-29,
O=C(CCc1ccccc1)NC1CCCc2ccccc21 (stereo not given),2,-12,-10,-6,-1,6,i,10,
COc1ccccc1OCC(=O)NCCNC(=O)COc1ccccc1OC,-4,-6,-14,-7,3,3,i,-15,
Cc1cc(=O)oc(C)c1C(=O)NCCC(C)C,-10,-9,4,-16,-7,0,i,nt,
CN(CC(=O)Nc1c(Cl)cccc1Cl)C(=O)c1cc2ccccc2cc1O,nt,10,-7,nt,-8,-6,i,-4,
O=C(Nc1ccccc1C(F)(F)F)c1ccsc1,2,-5,5,-5,-1,-1,i,-5,
CCC(C)(C)n1nnnc1C(c1ccncc1)N1CCC(Cc2ccccc2)CC1 (stereo not given),-26,2,-5,-5,-19,-16,i,0,
COC(=O)c1sc(S(=O)(=O)NC(Cc2ccccc2)C(=O)O)c(C(=O)OC)c1C (stereo not given),nt,11,-1,nt,-2,0,nt,-1,
CCOC(=O)C1(C)CCN1C(=O)c1c(F)cccc1F (stereo not given),nt,nt,-22,nt,2,10,nt,0,
CSc1nc(C)c2c(n1)N(c1cccc(C)c1)CC2,-2,2,-6,-18,1,-6,i,nt,
COc1ccc(-n2c(C)cc(-c3cn4cccc(C)c4n3)c2C)cc1,6,13,nt,26,-4,3,i,6,
C#CCSc1nccc(-c2nn(-c3ccc(C)cc3)ccc2=O)n1,2,29,10,-9,-3,-1,i,nt,
C=CCn1c(CC(=O)OC)csc1=Nc1ccc(C(C)=O)cc1,-9,2,-25,-1,5,1,i,nt,
NCC(=O)NCC(=O)OCc1ccccc1,-10,-30,nt,-5,1,5,i,11,
CC1CCCCN1CCNC(=O)c1ccc2c(=O)n(Cc3ccc(Cl)cc3)c(=S)[nH]c2c1 (stereo not given),-16,-12,nt,-7,-1,-1,i,-3,
COc1cccc(/C=N/Nc2nnc(C)n2N)c1OCc1ccccc1Cl,8,-24,nt,-8,5,9,i,-15,
COc1ccc(N(CC(=O)Nc2cccc(SC)c2)S(C)(=O)=O)cc1Cl,6,-7,-4,-4,1,-7,i,nt,
O=[N+]([O-])c1ccc(Cl)cc1N1CCCCC1,-9,-13,nt,-2,-1,-1,i,19,
C=CCOc1ccc(Cl)cc1C(=O)O,-3,-12,-4,4,-4,2,i,nt,
Cn1c(CNc2cccc(C(F)(F)F)c2)n[nH]c1=S,-4,-6,nt,2,4,-1,i,15,

# Seven structures already listed, ordered by count of non-hydrogen atoms, lowest first:
SMILES,PABP FP inh,CSC inhib,UUG fidelity,eIF4H FP inh,MT1-MMP act inh,MT1-MMP act inh RFP,Rce1 inhib,Env fusion inh,others
C=CCOc1ccc(Cl)cc1C(=O)O,-3,-12,-4,4,-4,2,i,nt,
Cn1c(CNc2cccc(C(F)(F)F)c2)n[nH]c1=S,-4,-6,nt,2,4,-1,i,15,
C=CCn1c(CC(=O)OC)csc1=Nc1ccc(C(C)=O)cc1,-9,2,-25,-1,5,1,i,nt,
C#CCSc1nccc(-c2nn(-c3ccc(C)cc3)ccc2=O)n1,2,29,10,-9,-3,-1,i,nt,
CN(CC(=O)Nc1c(Cl)cccc1Cl)C(=O)c1cc2ccccc2cc1O,nt,10,-7,nt,-8,-6,i,-4,
CCC(C)(C)n1nnnc1C(c1ccncc1)N1CCC(Cc2ccccc2)CC1 (stereo not given),-26,2,-5,-5,-19,-16,i,0,
CC1CCCCN1CCNC(=O)c1ccc2c(=O)n(Cc3ccc(Cl)cc3)c(=S)[nH]c2c1 (stereo not given),-16,-12,nt,-7,-1,-1,i,-3,

# Molecules above that have an aryl thioether with sulfur outside any ring, in the order listed:
SMILES,PABP FP inh,CSC inhib,UUG fidelity,eIF4H FP inh,MT1-MMP act inh,MT1-MMP act inh RFP,Rce1 inhib,Env fusion inh,others
CSc1nc(C)c2c(n1)N(c1cccc(C)c1)CC2,-2,2,-6,-18,1,-6,i,nt,
C#CCSc1nccc(-c2nn(-c3ccc(C)cc3)ccc2=O)n1,2,29,10,-9,-3,-1,i,nt,
COc1ccc(N(CC(=O)Nc2cccc(SC)c2)S(C)(=O)=O)cc1Cl,6,-7,-4,-4,1,-7,i,nt,

# Continuation:
SMILES,PABP FP inh,CSC inhib,UUG fidelity,eIF4H FP inh,MT1-MMP act inh,MT1-MMP act inh RFP,Rce1 inhib,Env fusion inh,others
COCCCN1C(=O)C(=O)/C(=C(/O)c2ccc(OC(C)C)cc2)C1c1cccnc1 (stereo not given),11,-7,-21,-1,3,1,i,nt,
COc1ccccc1CN(C)C(=O)C(NC(=O)Cc1cccc2ccccc12)C(C)C (stereo not given),5,6,-2,-1,-23,-16,i,19,
CCCCNC(=O)C1CC(c2c(Cl)cccc2Cl)=NO1 (stereo not given),-2,-22,-22,-9,3,1,i,?,
CC(=O)Nc1ccc(-c2csc(NC(=O)CCNC(=O)c3ccco3)n2)cc1,nt,1,-25,nt,-1,-1,nt,9,
Cc1ccc(NC(=O)Cn2nc(C(F)(F)F)c3c2CCC3)cc1,-13,-6,-9,5,3,-1,i,nt,
O=C(NNC(=O)c1cc(-c2ccccc2)nn1-c1ccccc1)c1ccccc1,2,-2,-12,6,6,5,i,nt,
CSc1nc2nc3c(cn2n1)C(=O)CC(c1ccccc1)C3 (stereo not given),61*,4,-24,48*,-7,3,i,10,eIF4H FP inh retest=79*;PABP FP inh retest=70*
O=C(Nc1cccc(C(=O)N2CCCC2)c1)c1ccccc1Cl,21,1,-6,-2,7,8,i,-11,
O=C(COc1ccc2c3c(c(=O)oc2c1)CCCC3)NCCCN1CCOCC1,4,7,-12,-12,4,2,i,11,
CCn1c(C)cc(C(=O)COC(=O)CNC(=O)c2ccco2)c1C,nt,nt,-7,nt,3,4,nt,-5,
CCC(C)N(C)C1CCN(C(=S)Nc2cccc(OC)c2)CC1 (stereo not given),9,0,-19,-6,0,5,i,-2,
COCc1cc(N2CCN(c3ccccc3F)CC2)nc(-c2ccccc2)n1,1,7,-7,-16,-4,-2,i,3,
CC(=O)OC1COC(n2ccc3cc([N+](=O)[O-])ccc32)C(OC(C)=O)C1OC(C)=O (stereo not given),8,nt,6,-4,5,0,i,-4,
COc1ccccc1/C=N/NC(=O)CSc1ccc2ccccc2n1,-8,31,nt,2,4,0,i,-5,
O=C(CCCN1C(=O)C(c2ccccc2)Oc2cccnc21)Nc1cccc(F)c1 (stereo not given),nt,-1,1,nt,2,0,i,12,
C=CCN1C(=O)C2(OCCCO2)c2ccccc21,-8,-8,10,-1,-1,0,i,-5,
COc1ccc(C(C)=O)cc1COc1cccnc1[N+](=O)[O-],-2,43,-19,4,-8,-5,i,39,
CC(C)(C)c1ccc(Cn2c(=O)cnc3ccccc32)cc1,6,72,-19,-10,-7,-24,i,39,
CCOC(=O)N1CCC(NC(=O)c2cc3c(=O)[nH]c4ccccc4c3n2C)CC1,-4,-8,nt,-8,1,0,i,16,
C/C=C/C1=CC(=O)C[C@H](c2ccc(OC)c(OC)c2)C1,nt,-8,-10,nt,-1,2,nt,-6,
O=C(O)CC1(c2ccc(F)cc2)C2CC3CC(C2)CC1C3 (stereo not given),-4,2,-11,-5,-1,3,i,5,
COc1ccc2nc(N/C(N)=N/S(C)(=O)=O)nc(C)c2c1,0,10,-8,-2,4,3,i,61*,
Cc1cccc(-n2cnc3cc([N+](=O)[O-])ccc32)c1,0,nt,-9,5,3,1,i,-84,
NC(=O)c1ccccc1NS(=O)(=O)c1cccs1,2,-11,6,5,-1,6,i,24,
COc1cccc(CNc2nc3nc(C)c(Cl)c(=O)n3[nH]2)c1,0,-1,-5,4,1,5,i,-9,
COCCCN1C(=O)N(c2ccccc2)C(=O)C1CC(=O)Nc1ccccc1 (stereo not given),-7,-6,-4,-4,0,-2,i,-13,
COC(C(=O)N/N=C(\C)c1ccc(C)cc1)c1ccccc1 (stereo not given),-20,3,3,-5,2,6,i,10,
COc1ccc(/C=C/C(=O)Oc2cccc(/C=N/NC(=O)Cc3ccc(Br)cc3)c2)cc1,2,14,-19,-6,-11,-13,i,-34,
Cc1cccc(/N=C/c2c(O)ccc3oc4c(c23)CCCC4)n1,-14,3,-6,36,-6,1,i,nt,
Cc1cc(Br)ccc1OCC(=O)NNC(=O)c1ccc(NC(=O)C2CC2)cc1,2,0,-16,12,10,4,i,nt,
COC(=O)c1ccc(CSc2nc3c(c(=O)n2-c2ccc(F)cc2)SCC3)o1,-9,nt,-12,0,8,-5,i,nt,
NS(=O)(=O)c1ccc(CCNC(=O)Cc2c[nH]c3ccccc23)cc1,-16,nt,-4,6,-1,6,i,nt,
Cc1cc(C)cc(NC(=O)C(OC(=O)c2ccc(O)cc2)c2ccccc2)c1 (stereo not given),nt,-17,5,nt,-4,2,nt,nt,
CC1c2cc3c(cc2CCN1C(=O)c1ccc(C(F)(F)F)cc1)OCCCO3 (stereo not given),0,8,-18,-2,5,-11,i,21,
Cc1cn2c(nc1=O)OC1C(O)C(COC(=O)c3ccccc3)OC12 (stereo not given),-4,-4,-11,3,2,6,i,nt,
O=C(CC1CCCC1)Nc1cc(S(=O)(=O)N2CCOCC2)ccc1O,nt,-2,4,nt,3,0,nt,nt,
COc1ccc(/C=C(/NC(=O)c2ccccc2)C(=O)N2CCCC2)cc1OC,8,11,4,4,2,3,nt,1,
Cc1nc([N+](=O)[O-])c(Sc2nc3ccc([N+](=O)[O-])cc3[nH]2)n1Cc1ccccc1,0,-7,-17,-9,7,-5,i,-7,
CC(C)(C)c1ccc(C(=O)Nn2cnnc2)cc1,-1,-2,-11,-2,2,4,i,11,
CC(=O)c1ccc(N2CCN(S(=O)(=O)c3csc(C(N)=O)c3)CC2)cc1,-5,-9,-5,-9,4,-5,i,-14,
CCN(CC)C(=O)C(=O)c1cn(CC(=O)NCc2ccc3c(c2)OCO3)c2ccccc12,25,-5,-16,-10,2,-3,i,-2,
COc1ccc(NC(=O)Cn2ccc3c(OC)cccc3c2=O)cc1,3,0,nt,-7,3,0,i,7,
Cc1ccccc1CSc1nnc(C)n1N,7,-4,-14,1,4,-4,i,nt,
COc1ccc(CN(CC2CCCO2)S(=O)(=O)c2ccc(-n3cnnn3)c(OC)c2)cc1 (stereo not given),-4,-4,nt,-2,-2,0,i,-25,
COC(=O)[C@@H]1CCCN1Cc1nc(Cc2ccccc2F)no1,1,-20,nt,0,1,5,i,-7,

# A portion of the library; count on the stated rates, not on these rows.
